# From PubChem
# NPYLR7 ag: mosquito NPYLR7 agonism | HEK293T NPYLR7/Galpha15, GCaMP6s calcium fluorescence | activation, % at 10 µM | actives 0.15% (n = 270,000) | AID 1259423; in the data active means activation above about 40%;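 further: 0% = vehicle and 100% = reference agonist at the receptor; some compounds past the cut are filed as inactive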
# NPYLR7 ag max-min: also measured in NPYLR7 ag; calls as there; activation, %; measured here: Max-Min RFU normalised activation; some inactives read as strong as hits;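 span of the calcium signal over five minutes; 0% = vehicle and 100% = native peptide agonist; compound fluorescence can raise it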
# * marks the source's active call; other numbers are inactive results; & = joins results of further samples.
SMILES,NPYLR7 ag,NPYLR7 ag max-min
Cc1csc(SCC(=O)N2CCc3c(cc(-c4csc5ccccc45)c(=O)n3C)C2)n1,16,3
CC(NC(=O)C1CCN(S(=O)(=O)c2ccc3c(c2)OCCO3)CC1)c1ccc(F)cc1F (configuration not stated),8,13
CNS(=O)(=O)c1ccc(-c2nccn2CC2(O)CCCCC2)cc1,7,3
COCC(=O)NC1CCN(c2ccccc2C(=O)NC2CCCc3ccccc32)CC1 (configuration not stated),13,28
CCc1cccc2c(C(CC(=O)NC3CC3)c3ccccc3OC)c[nH]c12 (configuration not stated),1,7
CCc1nc(N(CCC(=O)NCCN2CCOCC2)CC(C)C)c2ccc(Cl)cc2n1,1,1
NC1=NC(=O)/C(=C/c2ccccc2OCc2ccc([N+](=O)[O-])cc2)S1,-10,-18
COc1cc(-c2cnc(Nc3ccc(NS(=O)(=O)c4ccc(C)cc4)cc3)cn2)cc(OC)c1OC,0,-1
CCSc1nnc(NC(=O)c2cnccn2)s1,-16,-22
O=C(NCCNc1cc(-n2cccn2)ncn1)c1ccccc1C(F)(F)F,-6,-16
CC(C)(C)c1ncsc1NC(=O)N1CCCC1C1CCCCC1 (configuration not stated),4,3
Cc1cc(O)c(C(=O)C=Cc2cc(C(=O)O)cc3c2OCOC3)cc1C,0,2
CCOc1cccc(C=NNC(=O)c2cc(-c3ccco3)[nH]n2)c1O,-2,5
Cc1ccccc1-n1cnnc1SCC(=O)NC(C)C,0,-4
CC(C)CN(CC(=O)Nc1cc(C(C)(C)C)nn1-c1ccc(Cl)c(Cl)c1)C(=O)Nc1ccccc1Br,7,8
C#CCn1c(O)c(N=NC(=O)CNC(=O)c2ccc(C(C)(C)C)cc2)c2ccccc21,-7,-12
CCCn1nnc(NC(=S)NC(=O)c2cc3ccccc3o2)n1,1,11
c1ccc(CSc2nncn3c2cc2sccc23)cc1,4,1
CC(C)C(=O)Nc1ccc(N(C)C)c(CN(CC2CC2)C(=O)c2cccc(F)c2)c1,-2,-1
CCc1c(C)cc(C(=O)N2CC[C@@H](c3ccc4c(c3)OCO4)[C@H](O)C2)c(=O)n1C,1,2
CCCN(CC(=O)N(Cc1ccco1)Cc1cccn1C)C(=O)c1ccc(C(F)(F)F)cc1,-15,-5
Cc1cccc(Oc2cnn(-c3ccccc3)c(=O)c2Nc2ccc(C(=O)NCc3cccc(F)c3)cc2)c1C,14,11
COc1cc(C(=O)NCCNc2ccc(Nc3cccnc3)nn2)cc(OC)c1OC,-1,-3
O=C(CN1CCC(c2ccccc2C(=O)O)C1)NCc1ccccn1 (configuration not stated),3,8
CCOC(=O)CN1CC2N(S(C)(=O)=O)C3CCC2(CC3)OC1=O (configuration not stated),24,20
C=CCOCC(O)CN1CCC(=O)N(C(C)C)Cc2ccccc21 (configuration not stated),5,2
Cc1cc(C(=O)N(Cc2c(C)nn(C)c2C)C(C)C)nc(C)n1,-4,-6
CNc1nc2cnc(-c3ccccc3)cc2n1-c1ccccc1,7,-3
CC(=O)C(C)n1c(=O)c2c(nc3n(-c4ccc(C)cc4)c(C)cn23)n(C)c1=O (configuration not stated),-3,-5
CCS(=O)(=O)N(C)C1CCN(C(=O)c2cc(C)cc(C)c2)CC1,0,-1
COCC(C)NC(=O)C=Cc1nc2ccccc2s1 (configuration not stated),13,4
O=C(O)CN1C(=O)/C(=C\c2ccc(OCc3cccc4ccccc34)cc2)SC1=S,-5,3
COCCN(CC(=O)N(Cc1cccn1Cc1ccc(Br)cc1)C1CCCCC1)S(=O)(=O)c1ccc(F)cc1,-3,5
COc1ccccc1C(=O)N1CCCN(C(=O)CN2CCc3sccc3C2c2cccc(F)c2)CC1 (configuration not stated),5,0
CCN(CC)CCOc1ccc(C(=C(Cl)c2ccccc2)c2ccccc2)cc1,-5,-11
CCCCN(CC(=O)N1c2ccccc2-n2cccc2C1c1cc(OC)ccc1OC)C(=O)c1cc(OC)cc(OC)c1 (configuration not stated),0,14
O=C(CCN1CCSC1=O)Nc1ccc2c(c1)Cc1ccccc1-2,0,1
Cc1ncsc1CCN(C)Cc1ccccc1C(=O)O,16,13
CSc1ccc(NC(=O)CCN2CCCC2=O)cc1Cl,5,3
CC1(C)CC(=O)C=C(NC2CC(C)(C)NC(C)(C)C2)C1,-5,-5
CCOCCCN(CC(=O)N(CCc1ccc(OC)c(OC)c1)Cc1ccc(C)s1)C(=O)Nc1ccc(OC)cc1,19,19
CCCC(C)C(=O)NCCN1C(=O)SC(=Cc2ccccc2)C1=O (configuration not stated),7,4
CCn1nccc1NC(=O)c1csc([C@@H]2C[C@H](O)[C@@H](CO)O2)n1,5,1
Brc1ccc(OCCOc2cccc(-n3cnnn3)c2)cc1,1,0
CCN(CC)c1ncnc2c1oc1ccccc12,0,-2
COc1cc(OC)cc(-n2nnnc2CN(C)CC2CCC2)c1,0,-2
COc1cccc(-c2cc(C(=O)N(CCc3ccccc3)Cc3ccccc3)n3nc(C(C)(C)C)cc3n2)c1,7,5
CC1CN(C(=O)c2cccc(S(=O)(=O)N3CCCCC3)c2)CC(C)O1 (configuration not stated),10,6
O=C(Nc1nc(-c2ccccc2)cs1)c1ccc(S(=O)(=O)N2CCOCC2)cc1,-3,-6
CCOC(=O)C1CCN(C(=O)CC(c2ccccc2)c2cn(Cc3ccccc3)c3ccc([N+](=O)[O-])cc23)CC1 (configuration not stated),17,27
O=C(c1ccccc1)c1cc(Cl)ccc1Nc1nc(-c2ccccc2)c2cc(Cl)ccc2n1,-1,10
Cc1nc2c(-c3ccc(F)cc3)c(C)[nH]n2c(=O)c1Cc1ccccc1,-17,-22
COc1ccc2c(c1)-c1sc(C(=O)NCCCOC(C)C)cc1CC2,2,2
CC(C)N(Cc1cnn(C)c1)C(=O)c1ccc(OC2CCN(C(=O)C3CC3)CC2)cc1,7,6
CC(NCc1nnc(-c2cccc(Br)c2)o1)c1cccc(F)c1 (configuration not stated),1,-1
Cc1ccc(CN(C)Cc2nc(Cc3cccc(F)c3)no2)o1,3,0
CCCN(CC(=O)Nc1cc(-c2ccccc2)nn1-c1ccc(Cl)cc1)C(=O)Nc1cccc(Br)c1,-2,6
Cc1cc(C=CC(=O)N2CCC(C)CC2)c(C)n1-c1ccnn1C(C)C,-6,-7
Cc1cc(C)c(C(O)=C2C(=O)C(=O)OC23C(=O)c2ccccc2C3=O)c(C)c1,12,3
CC(C)CC1COCCN1C(=O)c1ccsc1 (configuration not stated),1,-5
# (continued)
SMILES,NPYLR7 ag,NPYLR7 ag max-min
O=C(NC1CCCC1)N1C[C@H]2[C@H](O)[C@@H]3C[C@H](c4ccc(F)cc4)[C@@H](O3)[C@H]2C1,9,17
CC(C)c1nnsc1CNC(=O)C1CC(=O)N(Cc2ccccn2)C1 (configuration not stated),1,-5
CCN(CC)C(=O)c1cc2c(OC(F)F)cccc2[nH]1,2,1
CCN(CC)C(CNC(=O)c1oc2c(c1C)C(=O)CCC2)c1ccccc1 (configuration not stated),10,6
CCOc1ccccc1N1C(=O)CSC1c1ccc(NC(=O)c2ccc([N+](=O)[O-])cc2)cc1 (configuration not stated),-8,-4
Cc1cc(C)nc(Nc2n[nH]c(Cc3ccccc3)n2)n1,10,5
O=C(c1ccco1)N1CCN(C(=O)c2cc3c(=O)n4ccccc4nc3s2)CC1,-4,-8
Cc1cc(C(=O)N2CCN(C3CCCC3O)CC2)c2[nH]ncc2c1 (configuration not stated),1,-1
CCOc1ccc(C(C2Sc3nc(C)nn3C2=O)N2CCN(CC)CC2)cc1 (configuration not stated),-1,-1
CC(=O)c1sc2nc(CN(C)C3CCC(C)CC3)[nH]c(=O)c2c1C (configuration not stated),1,2
CN(C)c1ccc(NC(=O)c2sc(SCC(=O)Nc3nccs3)nc2N)cc1,0,0
O=C(c1cn(-c2ccccc2)nn1)N1CCCOC(CN2CCOCC2)C1 (configuration not stated),-1,12
CC(C)c1ccc(NC(=O)CSc2nc(=O)n(CCN3CCOCC3)c3c2CCC3)cc1,-2,-6
CN1CCC=C(CCNC(=O)C23CC4CC(CC(C4)C2)C3)C1,2,-2
Cc1ccsc1[C@@H]1CCN(Cc2cccnc2N)C[C@H]1O,5,-2
CC(C)CN(C1CCS(=O)(=O)C1)S(=O)(=O)c1ccc(C(C)(C)C)cc1 (configuration not stated),-3,-5
Ic1ccc(-c2csc(NC3CC3)n2)cc1,1,0
N#Cc1c(N)cc(N)[nH]c1=S,-4,-11
O=C(NCc1ccco1)c1csc(Nc2ccc(OC(F)F)cc2)n1,10,-1
CC(NC(=O)N1CCC2(C1)OCCO2)c1ccc(F)cc1Cl (configuration not stated),-21&1,-22&7
O=c1[nH]cnc2ccc(I)cc12,-4,-5
CC(NC(=O)N(C)C(C)C1CC1)c1ccc2ccccc2c1 (configuration not stated),2,0
CCCNC(=O)C1(C)CCN(Cc2ccc(C(=O)OCC)cc2)C1 (configuration not stated),-1,-1
O=C(NCCn1nc(-c2ccco2)ccc1=O)c1cccc(C(F)(F)F)c1,7,5
CC(C)C(Sc1nnc(N(C)C)s1)C(=O)N(C)C1CCCCC1 (configuration not stated),7,8
CCOC(=O)CN1C(=O)CCN(C(=O)OCc2ccccc2)CC(O)c2ccccc21 (configuration not stated),6,12
Cc1cccn2c(=O)nc(SCC(=O)NCC3CCCO3)nc12 (configuration not stated),3,-1
CCOC(=O)C1=C(C)NC2=C(C(=O)CCC2)C1c1ccc(C(=O)OC)cc1 (configuration not stated),3,3
COc1cccc(NC(=O)N2CC(=O)N3CCc4cc(F)ccc4C3C2)c1 (configuration not stated),26,12
CN(C)C1(CNC(=O)C23CC4CC(CC(Cl)(C4)C2)C3)CCCCC1,-3,0

# Not a retest: entries from further up.
SMILES,NPYLR7 ag,NPYLR7 ag max-min
CN1CCC=C(CCNC(=O)C23CC4CC(CC(C4)C2)C3)C1,2,-2
Cc1ccsc1[C@@H]1CCN(Cc2cccnc2N)C[C@H]1O,5,-2
CC(C)CN(C1CCS(=O)(=O)C1)S(=O)(=O)c1ccc(C(C)(C)C)cc1 (configuration not stated),-3,-5
Ic1ccc(-c2csc(NC3CC3)n2)cc1,1,0
N#Cc1c(N)cc(N)[nH]c1=S,-4,-11
O=C(NCc1ccco1)c1csc(Nc2ccc(OC(F)F)cc2)n1,10,-1
CC(NC(=O)N1CCC2(C1)OCCO2)c1ccc(F)cc1Cl (configuration not stated),-21&1,-22&7
O=c1[nH]cnc2ccc(I)cc12,-4,-5
CC(NC(=O)N(C)C(C)C1CC1)c1ccc2ccccc2c1 (configuration not stated),2,0
CCCNC(=O)C1(C)CCN(Cc2ccc(C(=O)OCC)cc2)C1 (configuration not stated),-1,-1
O=C(NCCn1nc(-c2ccco2)ccc1=O)c1cccc(C(F)(F)F)c1,7,5
CC(C)C(Sc1nnc(N(C)C)s1)C(=O)N(C)C1CCCCC1 (configuration not stated),7,8
CCOC(=O)CN1C(=O)CCN(C(=O)OCc2ccccc2)CC(O)c2ccccc21 (configuration not stated),6,12
Cc1cccn2c(=O)nc(SCC(=O)NCC3CCCO3)nc12 (configuration not stated),3,-1

# Continued:
SMILES,NPYLR7 ag,NPYLR7 ag max-min
O=C(c1cn(-c2ccccc2)nn1)N1CCN(c2cnccn2)CC1,-4,-11
O=C(CN1C(=O)CCC1=O)Nc1nnc(C2=COCCO2)o1,3,1
Clc1ccc(-c2cnc(-c3ccncc3)o2)cc1,9,9
O=C(NCCSc1c(-c2ccc(F)cc2)[nH]c2ccccc12)c1ccc(N2C(=O)CCC2=O)cc1,2,22
CCC(=O)O[C@]1(C(=O)CCl)[C@@H](C)CC2C3CCC4=CC(=O)C=C[C@]4(C)[C@@]3(F)[C@@H](O)C[C@@]21C (some centres not stated),-16,-22
COc1cccc(CO[C@]2(C(=O)NCC(C)C)CC(OCc3ccc(F)cc3)[C@H](O)[C@H](O)C2)c1 (some centres not stated),4,4
O=C(NNc1ccccc1)c1ccncc1,-11,-13
CSc1ccc(C(=O)CC(C)(C)C(=O)NCc2ccc3c(c2)OCO3)cc1,-5,-7
CCCCNc1n[nH]c(=S)s1,4,4
CN(Cc1cnn(C)c1)C(=O)c1cn(C(c2ccccc2)c2ccccc2)nn1,-6,-9
O=C(COC(=O)c1cc(Br)ccc1O)c1ccc(Oc2ccc([N+](=O)[O-])cc2)cc1,-3,-7
CS(=O)(=O)N1CCC(C(=O)OCc2cc(-c3ccccc3F)on2)CC1,0,-2
CC(C)n1nc(C(=O)NN2CCOCC2)c2ccccc2c1=O,-1,15
COC(=O)CNC(=O)c1cccc(OC2CCN(C(=O)C3CC3)CC2)c1,2,1
Cc1ccc(NC(=O)Cn2cnc3ccsc3c2=O)cc1I,3,9
Cc1ccc(F)cc1NC(=O)CN(C)C(=O)c1ccco1,0,2
Cc1c(C2CC(=O)Nc3c2c(-c2cccnc2)nn3C)oc2ccccc12 (configuration not stated),5,-1
O=C(O)c1c[nH]c2cc(C(F)(F)F)ccc2c1=O,0,-5
COC(=O)c1ccc(N2C(=O)CC(NCc3ccc4c(c3)OCO4)C2=O)cc1 (configuration not stated),1,-1
COCCOC1CCCN(C(=O)c2ccccc2C)C1 (configuration not stated),-3,-3
COc1cccc(CC(=O)N2CCOC(COCc3ccccc3F)C2)c1 (configuration not stated),-7,-9
Cc1ccc(C(=O)NCCc2nc(C(C)(C)C)cs2)cn1,-2,-4
CC(OC(=O)CC(C)(O)C(F)(F)F)C(=O)N1CCOCC1 (configuration not stated),5,3
C=CCn1c(SCc2cc(=O)n3ccsc3n2)nc2sc(C)c(C)c2c1=O,2,0
O=C(Nc1cccc2ccccc12)Nc1c[nH]c2ccccc12,0,-7
N#Cc1cccc(CN2CCN3C(C(=O)NC4CCc5ccccc54)=COC3=NC2=O)c1 (configuration not stated),-2,-4
CC(NC(=O)c1ccc(N2CCC(N(C)Cc3ccco3)CC2)cc1)c1ccccc1 (configuration not stated),18,4
CC(C)c1nc(C(N)=O)c2[nH]c(=O)n(-c3ccc(Cl)c(Cl)c3)c2n1,3,8
CC(O)C(C)SCc1csc(-c2ccccn2)n1 (configuration not stated),9,4
COC(=O)c1c(NC(=O)CSc2nnnn2-c2ccccc2)sc2c1CCCCC2,-4,-6

# A portion of the library, so the mix of outcomes need not match the whole.
